Screening results (PubChem BioAssay)
RecA splice inh: inhibitors of M. tuberculosis RecA intein splicing. P9WHJ3. AID 2221. inhibition, %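 (about 9 µM by stock and volumes)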. 290,000 tested, 0.75% active. cell-free RecA intein splicing, fluorescence; in the data active means inhibition above about 30%; inconclusive means no clear call, values can overlap the other calls;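 further: 0% = vehicle wells and 100% = reference inhibitor control wells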
Target sequence (P9WHJ3 whole entry, looked up, canonical isoform): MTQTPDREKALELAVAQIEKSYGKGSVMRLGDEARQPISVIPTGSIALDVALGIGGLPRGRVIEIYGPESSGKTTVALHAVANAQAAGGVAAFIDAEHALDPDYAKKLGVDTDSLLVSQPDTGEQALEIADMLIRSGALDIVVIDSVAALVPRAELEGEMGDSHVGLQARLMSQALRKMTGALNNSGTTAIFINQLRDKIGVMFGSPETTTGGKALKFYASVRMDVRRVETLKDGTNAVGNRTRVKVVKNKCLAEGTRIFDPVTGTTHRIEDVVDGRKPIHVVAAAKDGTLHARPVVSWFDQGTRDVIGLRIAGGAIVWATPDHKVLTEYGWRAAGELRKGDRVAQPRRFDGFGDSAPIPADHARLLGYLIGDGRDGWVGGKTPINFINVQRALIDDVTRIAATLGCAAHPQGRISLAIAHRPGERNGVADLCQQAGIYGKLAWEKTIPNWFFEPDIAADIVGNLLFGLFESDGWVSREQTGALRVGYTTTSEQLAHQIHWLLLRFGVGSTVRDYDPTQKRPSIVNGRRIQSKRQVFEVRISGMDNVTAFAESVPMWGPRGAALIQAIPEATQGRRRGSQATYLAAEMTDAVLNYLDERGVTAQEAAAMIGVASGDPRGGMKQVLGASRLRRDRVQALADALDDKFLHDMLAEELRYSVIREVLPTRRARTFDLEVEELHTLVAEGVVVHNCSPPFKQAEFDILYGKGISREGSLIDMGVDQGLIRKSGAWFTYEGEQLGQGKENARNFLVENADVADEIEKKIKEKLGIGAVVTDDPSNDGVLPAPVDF
Mtb betalactam: beta-lactam sensitization of Mtb H37Rv; 330,000 tested, 0.27% active; M. tuberculosis H37Rv growth with meropenem, percent inhibition; hits of this screen are not shown here; AID 434955; inhibition, % at 25 µM;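 active means about 74% or more and at least 40 points above the plate without the antibiotic, then above 30% in a dose series; inconclusive means first-round hits that could not be retested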;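 further: growth measured after seven days incubation then overnight dye step; 0% = bacteria only wells and 100% = bacteria with antibiotic; twin plates without the antibiotic show which effects depend on it; some results filed as inactive read as strong as hits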
Arbovirus inh: blocks arbovirus infection; arbovirus infection cell-based antiviral screen; inhibition, % at 10 µM; 200,000 tested, 0.37% active;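 active means inhibition from about 30%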;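 further: bluetongue infection of BSR cells; cell survival read as ATP light after 72 h; 0% = infected wells without compound and 100% = uninfected wells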
YopH inh: YopH (Yersinia) phosphatase inhibition | fluorescence Ex485/Em525 | inhibition, %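 (about 10 µM by stock and volumes)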 | 140,000 tested, 0.16% active;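 active means inhibition of 50% or more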;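 further: controls were vehicle for no effect and minimum signal wells for full effect; inactives centre near -20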
Mtb H37Rv: M. tuberculosis H37Rv growth inhibitors, H37Rv strain (AID 1626) | inhibition, % at 10 µM, or IC50 in µM where a hit was titrated | M. tuberculosis H37Rv growth inhibition; higher % means a stronger effect | 220,000 tested, 0.95% active;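 active means confirmed in a dose series; inconclusive means inhibition above 80% but not taken into the dose series; inactive means below 80% or under 30% at every dose of the series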;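 further: bacteria incubated seven days before Alamar blue readout; 0% = bacteria only wells and 100% = bacteria with antibiotic wells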
Arbovirus inh repeat: further read-out of Arbovirus inh, marked with its call; inhibition, %; measured here: 10K subset replicate screen; many hits read low in the repeat;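 first of two repeat runs on a subset; 0% = infected and 100% = uninfected wells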
Active calls of the source: *; ? = inconclusive; / = not tested or not shown. A portion of the library; rates above refer to the full screens.

SMILES	RecA splice inh	Mtb betalactam	Arbovirus inh	YopH inh	Mtb H37Rv	others
CCN1CCN(c2cc(C)c3cc(NC(=S)N4CCCCC4)ccc3n2)CC1	-4.1	1	-25	/	3%
COc1ccc(S(=O)(=O)NCc2ccc(C(=O)NCCCN3CC(C)CC(C)C3)cc2)cc1 (centres undefined)	-5.3	-5	/	/	/
Cc1ccc(S(=O)(=O)NC(CC(=O)NCC2CCCO2)c2ccccc2)cc1 (centres undefined)	-1.4	4	1	/	-7%
CC(=O)c1cccc(NC(=O)CCNC(=O)c2ccccc2Cl)c1	1.6	-10	/	/	/
COC(=O)Nc1nnc(Cc2ccc(Cl)cc2)s1	/	-5	-31	-18	-9%
CCN1C(=O)/C(=C\C(=O)c2cccs2)c2cc(Br)ccc21	17	97	-25	/	?
Cc1ccc(S(=O)(=O)Nc2ccc3[nH]ccc3c2)cc1	-1.7	9	/	/	/
O=C(Nc1cnccn1)c1cccnc1	0.6	3	-1	-19	10%
CC(C)(C)OC(=O)N1CCC2(CC1)C(C#N)=C(N)OC1=C2C(=O)CCC1	-2.5	-2	4	/	7%
CN(C)C(=O)CCCCCCCCC(=O)N(C)C	-1.5	-5	/	/	-4%
CCOC(=O)COc1ccc2c(c1)c(C(=O)OCC)c(C)n2CC	0.0	100	-2	1	?
CN(CCCNC(=O)CCc1cn(C)c2ccccc12)C1CCCCC1	-2.9	4	/	/	/
COc1ccc(NC(=O)c2scc(S(=O)(=O)C(C)C)c2N)cc1	1.5	-4	/	/	-6%
O=C(CN1C(=O)NC2(CCc3ccccc32)C1=O)Nc1cc(C(F)(F)F)ccc1N1CCOCC1 (centres undefined)	0.9	-5	/	/	14%
COc1cccc(CNC(=O)CCCn2nc(C)n3c(cc4sccc43)c2=O)c1	-1.5	-2	/	/	/
CN(Cc1ccccc1)S(=O)(=O)c1nnc(NC(=O)c2ccccc2F)s1	-1.7	-3	/	/	/
CCNC(=O)C(=O)NCCc1ccc(Cl)cc1	-0.8	-6	8	5	-1%
CSC1=NCCN1C(=O)c1cccc(C(F)(F)F)c1	0.6	-14	-3	12	-3%
CC1CCCCC1NC(=O)c1ccc(S(=O)(=O)N2CCN(C)CC2)cc1 (centres undefined)	1.8	-3	/	/	/
CC(=C/c1ccccc1)/C=C1/SC(N2CCOCC2)=NC1=O	1.8	?	-10	-15	/
COc1ccccc1OCC(=O)Nc1ccccc1C(=O)NCc1ccco1	-0.1	-1	-3	-6	9%
O=C(CN1C(=O)c2ccccc2C1=O)OCC(=O)c1ccccc1	-0.2	0	/	/	/
O=C(NCc1ccccc1)c1ccc(F)c(F)c1	3.9	1	0	/	-2%
COc1cc(CC2COC(=O)C2(O)Cc2ccc(O)c(OC)c2)ccc1O (centres undefined)	-4.9	-9	/	/	-5%
O=C(O)c1cc2ccccc2cc1Nc1ccccc1	-0.3	1	/	/	-4%
COc1ccccc1C(=O)COC(=O)c1nc(Cl)ccc1Cl	-0.2	1	/	/	/
COc1ccc(C(=O)CSc2nncn2C)cc1	-2.0	-6	-3	-5	3%
Cc1ccc(C2C3=C(CCCC3=O)Nc3[nH]c(=S)[nH]c(=O)c32)cc1 (centres undefined)	0.3	7	10	-13	-5%
O=C(c1ccccc1NS(=O)(=O)c1cccc(C(F)(F)F)c1)N1CCc2ccccc21	-3.0	0	5	-3	4%
CCOC(=O)C1CCN(CCCSc2ccc(C)cc2)CC1	0.3	-5	/	/	/
Cc1ccc2[nH]c(=O)c(-c3noc(CC(C)C)n3)cc2c1	-2.3	-6	/	/	11%
CC(C)NC(=S)n1cc(C(=O)c2cc(Cl)cc(Cl)c2O)cn1	2.2	1	/	/	/
CNCc1ccc(OCc2ccccc2)c(OC)c1	-0.6	5	-6	-35	2%
N#Cc1nc(COc2ccccc2)oc1N1CCCC1	-1.5	-1	-10	-16	/
CCC(=O)NC1(C(F)(F)F)C(=O)Nc2c1c(=O)n(C)c(=O)n2C (centres undefined)	0.2	-7	-2	-7	-8%
COCCn1cc(C(=O)c2ccccc2OCC(=O)Nc2cc(C)on2)cc(C#N)c1=O	-6.5	-15	0	-32	0%	Arbovirus inh repeat=3
CCOC(=O)C(Cc1ccccc1)NC(=O)CCC(=O)c1ccc(OC)cc1 (centres undefined)	0.7	-4	/	/	/
COc1cc(OC)cc(C(=O)N[C@H](C(=O)OCC(=O)N2CCc3ccccc32)C(C)C)c1	1.1	2	-3	/	4%
O=C(/C=C/c1ccc(F)cc1)NC(=S)N1CCN(Cc2ccccc2)CC1	/	4	/	/	-4%
C/C(=N/NC(=O)c1cccs1)c1ccco1	-5.6	-5	-14	-22	-4%
Brc1ccccc1OCCCN1CCOCC1	0.4	6	-3	-21	-16%	Arbovirus inh repeat=-1
CC(=O)Oc1ccc(C(=O)Nc2ccc(C3(C#N)CCCC3)cc2)cc1	0.2	24	/	/	/
CN(Cc1nccs1)C(=O)c1ccc(OC2CCN(CCc3ccccc3)CC2)cc1	1.0	?	/	/	/
O=C(N/N=C/c1ccc(OCC(=O)N2CCCCC2)cc1)c1ccccc1O	-6.8	0	-11	-12	-3%
CC1=C(C(=O)OC(C)C)C(c2ccc(N(C)C)cc2)C2=C(CC(C)(C)CC2=O)N1 (centres undefined)	-2.6	-8	3	-24	-8%
C/C(CC(=O)Nc1cc(C)ccn1)=N\NC(=O)c1ccncc1	75*	99	/	/	/
Cn1c(CC(=O)Nc2ccccc2Cl)nnc1SCC(=O)Nc1nncs1	-0.3	3	/	/	/
CCOC(=O)c1sc(NC(=S)NC(=O)c2ccc(OC)cc2)nc1C	2.2	7	/	/	/

Taken from the listing for reference:
SMILES	RecA splice inh	Mtb betalactam	Arbovirus inh	YopH inh	Mtb H37Rv	others
C/C(CC(=O)Nc1cc(C)ccn1)=N\NC(=O)c1ccncc1	75*	99	/	/	/
Cn1c(CC(=O)Nc2ccccc2Cl)nnc1SCC(=O)Nc1nncs1	-0.3	3	/	/	/
CCOC(=O)c1sc(NC(=S)NC(=O)c2ccc(OC)cc2)nc1C	2.2	7	/	/	/

Remaining list, next part:
SMILES	RecA splice inh	Mtb betalactam	Arbovirus inh	YopH inh	Mtb H37Rv	others
CCC(=O)Nc1nnc(-c2ccccn2)o1	-0.4	-4	4	-20	6%
COc1ccc(OC)c(S(=O)(=O)Nc2c(C)cccc2C)c1	-0.7	-1	-10	/	-5%
Cc1nnc(NNS(=O)(=O)c2ccc(Cl)cc2)[nH]c1=O	-1.6	-9	/	/	-5%
Cc1ccc(NC(=O)CCC(=O)NNC(=O)COc2cccc3ccccc23)c(C)c1	3.0	7	-14	-17	-5%
CCCCNC(=O)CCC(=O)NNc1nc2ccccc2c2nc(-c3ccccc3)nn12	-4.4	-4	-12	-19	0%
CCN(CC)C(=O)CSc1nc(C)cc(C)n1	2.4	-2	4	/	-6%
CC(C)(C)C(=O)Nc1nc(=S)ss1	1.8	-3	20	-29	-1%
COc1cccc(OC(=O)c2cc3ccccc3oc2=O)c1	-1.6	3	-1	/	9%
CC(/C=N/n1c(C2CCCCC2)n[nH]c1=S)=C\c1ccccc1	11	98	-16	-35	-4%
Cc1noc(C)c1S(=O)(=O)N1CCC(C(=O)NC2CCCc3ccccc32)CC1 (centres undefined)	0.7	-2	-2	-18	-11%
CCOc1cc(-c2cc(-c3ccc(OC)cc3)nc(N)c2C#N)ccc1O	-2.2	4	3	-13	2%
N#Cc1c(-c2ccccc2)nc(SCc2nc(N)nc(N3CCCCC3)n2)[nH]c1=O	-0.6	3	12	10	-9%
Cc1cccc(C)c1NC(=O)CNC(=O)c1c(C)nn(-c2ccccc2)c1C	2.5	-18	/	/	/
O=C(NC(=S)Nc1ccc(CN2CCOCC2)cc1)c1ccccc1[N+](=O)[O-]	-5.4	-7	7	-16	1%
CCCS(=O)(=O)N1CCN(C(=O)c2cccnc2)CC1	/	0	3	-26	0%	Arbovirus inh repeat=5
CCCN1CCN(C(=S)Nc2ccc3nc(N4CCN(CC)CC4)cc(C)c3c2)CC1	5.4	2	6	/	-2%
Fc1ccccc1OCCCn1ccnc1	2.5	4	/	/	/
CCOc1cc(CNCc2cccnc2)ccc1OCC(=O)NC(C)(C)C	-0.6	3	1	/	2%
CN(C)c1ccc(CNCc2cccnc2)cc1	-2.1	-4	/	/	/
Cc1cc(C)cc(N(CC(=O)NCc2ccco2)C(=O)CCC(=O)Nc2nccs2)c1	0.4	3	-6	/	1%
COc1ccc(NC(=O)CSc2nc3[nH]c(=O)[nH]c(=O)c3s2)cc1OC	3.2	2	/	/	/
O=C(CN1C(=O)c2cccc([N+](=O)[O-])c2C1=O)OCC(=O)N1CCCCC1	-6.8	-2	/	/	/
COc1cc(CN(C)Cc2cccc3ccccc23)cc([N+](=O)[O-])c1O	1.8	-4	/	/	/
Cc1[nH]c2ccccc2c1CCN(Cc1cccnc1)C(=S)NC(C)(C)C	-1.6	-8	/	/	/
O=C(NCC(=O)N(c1ccccc1)C(C(=O)NC1CCCC1)c1ccncc1)c1cccs1 (centres undefined)	0.2	-4	/	/	/
Cc1ccccc1OCC(=O)NNC(=O)C1CCCCC1C(=O)O (centres undefined)	-1.1	2	3	-19	1%
COc1ccc(CCNC(=O)COC(=O)/C=C/c2cc(OC)c(OC)c(OC)c2)cc1OC	-3.7	-7	5	/	-4%
Cc1ccc(NC(=O)CCC(=O)NNC(=O)NC2CCCCC2)c(C)c1	-2.7	-4	0	/	7%
CCC(c1ccccc1)c1nnc(NC(=O)c2ccco2)s1 (centres undefined)	-1.0	-3	/	/	2%
CCOC(=O)C1=C(C)NC2=C(C(=O)C(C(=O)OCC)C(c3ccccc3OC)C2)C1c1ccccn1 (centres undefined)	-3.3	-2	-13	-16	-1%
O=C(NCC1CCN(Cc2cccc(Cl)c2)CC1)C1CCCN(c2ncnc3c2nc2n3CCCCC2)C1 (centres undefined)	0.5	1	/	/	/
O=c1nc(N2CCCC2)nc(Nc2ccccc2)[nH]1	-1.0	6	8	1	/
COc1ccc(C)c(NC(=O)NCCc2cnc[nH]2)c1	-0.4	5	/	/	/
Cc1ccc(CN2C(=O)C3CCCN3c3ccc(C#N)cc32)cc1 (centres undefined)	-4.5	1	-4	-29	-15%
C=CCn1c(=NC(=O)c2cccs2)sc2cccc(OC)c21	-0.7	4	/	/	6%
O=[N+]([O-])c1ccc(NC(=S)NCCc2ccccc2)cc1	8.5	13	-28	-5	12%

Ordered by number of heavy atoms (falling): part of the list above
SMILES	RecA splice inh	Mtb betalactam	Arbovirus inh	YopH inh	Mtb H37Rv	others
Cc1noc(C)c1S(=O)(=O)N1CCC(C(=O)NC2CCCc3ccccc32)CC1 (centres undefined)	0.7	-2	-2	-18	-11%
O=C(NC(=S)Nc1ccc(CN2CCOCC2)cc1)c1ccccc1[N+](=O)[O-]	-5.4	-7	7	-16	1%
Cc1ccc(NC(=O)CCC(=O)NNC(=O)NC2CCCCC2)c(C)c1	-2.7	-4	0	/	7%
Cc1ccc2[nH]c(=O)c(-c3noc(CC(C)C)n3)cc2c1	-2.3	-6	/	/	11%
O=C(Nc1cnccn1)c1cccnc1	0.6	3	-1	-19	10%
CC(C)(C)C(=O)Nc1nc(=S)ss1	1.8	-3	20	-29	-1%

Other structures.
SMILES	RecA splice inh	Mtb betalactam	Arbovirus inh	YopH inh	Mtb H37Rv	others
O=c1cnn(-c2ccc(Cl)cc2Cl)c(-c2ccccc2)c1	1.9	7	-19	-18	/
O=C(COC(=O)c1ccc([N+](=O)[O-])s1)Nc1cccc(S(=O)(=O)NC2=NCCCCC2)c1	-4.1	-4	/	/	11%
CCC(=O)Nn1cnc2c(c1=O)C1(CCCCC1)Cc1ccccc1-2	1.6	-3	0	-26	6%
CN(Cc1cn(C)nc1-c1ccccc1F)C1CCOC1 (centres undefined)	3.1	3	-1	/	-5%
Cc1ccc(CSc2nnc([C@@H]3CCCN3C(=O)OC(C)(C)C)o2)cc1	2.4	-3	/	/	-4%
CCCC(=O)N1CCN(c2ccc(NC(=O)c3ccc(OCC)c([N+](=O)[O-])c3)cc2)CC1	-0.5	-11	-4	-19	/
CCOC(=O)c1c(NC(=O)CSC(=S)N2CCOCC2)sc(C)c1C	4.7	3	-17	-24	-20%
Cc1cccc2c1nc(-c1ccccc1)n1cnnc21	-1.1	-4	2	21	-5%
COc1ccc(C(=O)C2CCCN(Cc3cccn3-c3cccnc3)C2)cc1OC (centres undefined)	1.9	1	8	/	-3%
OCC1OC(n2nc3ccccc3n2)C(O)C(O)C1O (centres undefined)	-4.0	6	5	-33	-15%
CCc1cc2ccc(C)cc2nc1SCC(=O)c1ccc(NC(C)=O)cc1	2.5	3	1	-12	-1%
COc1cccc(/C=N/NC(=O)C(=O)NCc2cccnc2)c1OC	-0.3	0	-1	/	-4%
CC(Cc1ccc(O)cc1)NCC(O)c1cc(O)cc(O)c1 (centres undefined)	-14	-2	/	/	-10%
COc1ccc(/C=N\NC(=O)C2=NNC(=O)C2C)cc1 (centres undefined)	-5.9	-7	3	1	-6%
